From PubChem
Bst PK mod = alters activity of Bacillus stearothermophilus pyruvate kinase | partly purified Bacillus stearothermophilus pyruvate kinase, luminescence ATP production; ribose 5-phosphate activator present at AC10 | Potency, µM | 1.2% of 51,000 active | AID 361; in the data active means potency below about 11 µM; inconclusive means mostly about 12 µM to 25 µM; inactive means weaker than that;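 the screen sought inhibitors and activators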;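 note: potency is the fitted concentration of half-maximal effect; scaled between full activation by ribose 5 phosphate and full inhibition by luteolin; about four in five hits inhibit and the cells do not say which; series up to 57 µM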
TsaE inh = YjeE (TsaE) inhibition, E. coli. 0.05% of 71,000 active. AID 605. Potency, µM. purified YjeE, fluorescence polarisation of a bound ADP probe; active = well fitted falling curve; inconclusive = weaker or top-dose-only fall, or a rising curve; inactive = flat or poorly fitted curve;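 note: top concentration of the series not given in the record; excess ADP was the control for the full effect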
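Purified YjeE (10 uM) with BODIPY Texas Red-labeled ADP probe (2 uM); compounds pin-transferred, 15 min at room temperature. Binding inhibition read as decreased fluorescence polarization; ADP titration as control.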
Active calls of the source: *; i = inactive; ? = inconclusive; / = not tested or not shown.

SMILES	Bst PK mod	TsaE inh
O=C(CSc1nc(-c2ccco2)cc(C(F)(F)F)n1)N1CCSCC1	>57	i
Cc1ccccc1OCc1nc2c3cnn(C)c3ncn2n1	>57	i
CCCOC(=O)Nc1ccc(N2CCCCC2)cc1	i	i
CCOc1cccc(-c2nnc3sc(-c4cc(OC)c(OC)cc4OC)nn23)c1	>57	i
Clc1cccc(N2CCN(Cc3nc(-c4ccccc4)no3)CC2)c1	/	i
OCl	/	i
CS(=O)(=O)N(CC(=O)N1CCN(c2ccccc2)CC1)c1cc(C(F)(F)F)ccc1Cl	/	i
COc1ccc(-c2nc3cnc(OC)nc3n(C)c2=O)cc1	/	i
COc1ccc2oc(=O)c(-c3nnc(NCc4ccco4)s3)cc2c1	>57	i
O=C(CCN1C(=O)COc2ccccc21)NCCN1CCOCC1	>57	i
CC(C)C(=O)Nc1c2c(nc3c1CCC3)CCCC2	>57	i
COCCOC(=O)C1=C(C)NC(=O)NC1C1CC=CCC1 (stereo not given)	/	i
COc1ccccc1-c1nc2s/c(=C\c3cccs3)c(=O)n2n1	/	i
CN(C)C(=O)c1ccc(-c2ccc3ncnc(NCc4cccnc4)c3c2)cc1	/	i
O=C1C=C(NC2CC2)C2(CCCCC2)O1	/	i
COc1cccc(N(CC(=O)Nc2ccccc2C)S(C)(=O)=O)c1	>57	i
CCOC(=O)N1CCN(Cc2cc(=O)oc3ccc4ccccc4c23)CC1	>57	i
Cc1cnc(-c2nnc(N(C)C(=O)c3ccncc3)s2)cn1	>57	i
COC(=O)c1ccc(C(NC(=O)OCc2ccccc2)/C(=C/[C@@H](C)C(=O)NCc2ccc(OC)c(O)c2)c2cccnc2)cc1 (stereo not given in full)	/	i
CC(C)NC(=O)C1(O)c2ccccc2NC(=O)N1c1ccc(Cl)c(Cl)c1 (stereo not given)	>57	i
O=C(Nc1nonc1NC(=O)C1CCCCC1)C1CCCCC1	>57	i
CCN1CCN(c2ccc(NC(=O)COc3ccccc3Cl)cc2)CC1	>57	i
COc1ccccc1C(=O)Nc1c2c(nn1-c1cccc(C)c1C)CS(=O)(=O)C2	>57	i
CCC(=NC(CC)CO)C1=C(O)CC(C)(C)CC1=O (stereo not given)	>26	/
CC(C)NS(=O)(=O)c1ccc2c(c1)oc(=O)n2C	/	i
Cc1cnc(NC(=O)c2c(O)c3cccc4c3n(c2=O)CCC4)s1	>57	i
Cn1cccc1/C=N/n1cnnc1	>26	/
Cc1cc(C(=O)N2CCN(c3ncccn3)CC2)c(C)o1	>57	i
Cc1ccc(NC(=O)N2CCCN(Cc3ccc(F)cc3)C2)cc1C	>57	i
NC(=O)c1ccsc1NC(=O)COC(=O)c1ccccc1NCc1ccco1	/	i
CCC(C(=O)N1CC2(C)CC1CC(C)(C)C2)N1C(=O)c2ccccc2C1=O (stereo not given)	/	i
COc1cccc(Nc2ncc3nc(C)c(=O)n(C)c3n2)c1	/	i
CCn1c(SCC(=O)Nc2cccc(F)c2)nnc1-c1cc2cc(Br)ccc2o1	>57	i
COC(=O)c1cccc(NS(=O)(=O)c2cccs2)c1C	>57	i
CC(C)(C)n1ncc2c(=O)n(CC(=O)N3CCN(c4ccccc4)CC3)cnc21	>57	i
COc1cccc(-c2nn(-c3ccccc3)cc2C(=O)Nc2nccs2)c1	>57	i
COC(=O)CCP(=O)(O)Cc1ccccc1CP(=O)(O)CCC(=O)OC	>57	i
O=C(Nc1ccc(S(=O)(=O)N2CCCC2)cc1)C1COc2ccccc2O1 (stereo not given)	/	i
O=C(CN(C(=O)CSc1nnc(COc2ccccc2)o1)c1ccc(F)cc1)NC1CCCCC1	>57	i
CC(=O)O[C@H]1C(=O)[C@]2(C)[C@H]([C@H](OC(=O)c3ccccc3)[C@]3(O)C[C@H](OC(=O)[C@H](O)[C@@H](NC(=O)c4ccccc4)c4ccccc4)C(C)=C1C3(C)C)[C@]1(OC(C)=O)CO[C@@H]1C[C@@H]2O	>26	/
CN(C)C(=O)c1ccc(-c2nccc(NCc3ccccc3)n2)cc1	/	i
Cc1cc(C(=O)COc2ccc3ccc(=O)oc3c2)c(C)n1Cc1cccs1	>57	i
Cc1ccc(S(=O)(=O)NC(=O)c2cc(C)n(CCCn3ccnc3)c2C)cc1	>57	i
COc1ccc(NC(=O)NCCCN2CCN(c3cc(C)ccc3C)CC2)cc1	/	i
CCOC(=O)Nc1ccc2c(c1)N(C(=O)CCN(C)C)c1ccccc1S2	>57	i
O=C(CCN1CCN(c2ccccn2)CC1)Nc1ccc(F)cc1	>57	i
O=C(NCc1ccc(Cl)cc1)C1C2C=CC3(CN(Cc4cccnc4)C(=O)C13)O2 (stereo not given)	>57	i
Cc1nn(-c2cc(C)c3ccccc3n2)c2c1CCC2	>57	i
O=P(O)(CCc1ccccn1)CN1CCCCC1	/	i
COc1cccc(Cn2c(=O)c(-c3ccc(F)cc3)nc3cncnc32)c1	/	i

Carrying on:
SMILES	Bst PK mod	TsaE inh
C=CCn1c(SCC(=O)c2ccc(NS(=O)(=O)c3ccccc3)cc2)nnc1-c1cccs1	>26	/
CCOC(=O)C(C(=O)N1CCOCC1)C1CCCCC1 (stereo not given)	?	i
CO/N=C(/C(=O)N[C@@H]1C(=O)N2C(C(=O)O)=C(COC(N)=O)CS[C@H]12)c1ccco1	/	i
O=C(Nc1ccc(Cl)cn1)c1ccc(COCC(F)(F)C(F)F)o1	/	i
O=C(COc1ccc2ccccc2c1Br)Nc1ncn[nH]1	>57	i
COc1cc2nc(C)sc2cc1SC	/	i
O=S(=O)(Nc1cccc(-c2nc3cccnc3s2)c1)c1ccc2c(c1)OCCO2	/	i
C=CCN1C(=O)C2(C(C#N)=C(N)Oc3n[nH]c(CCC)c32)c2ccccc21 (stereo not given)	>57	i
CCN(Cc1ccccc1)C(=O)Cn1c(=O)n(CC(=O)NCc2ccco2)c(=O)c2sccc21	>57	i
O=c1sc2ccccc2n1COc1ccccc1	/	i
CCNC(=O)c1ccc2c(c1)S(=O)(=O)c1ccccc1C2=O	/	i
CC(C)c1ccccc1OCCNS(C)(=O)=O	/	i
O=C(OCCN1C(=O)c2ccccc2C1=O)C1CCN(S(=O)(=O)c2cccs2)CC1	>57	i
N#Cc1nc(Cc2ccccc2)oc1NCc1ccccc1Cl	?	i
CCn1c(SCC(=O)NC)nnc1C(C)C	>57	i
COc1cc(C2Nc3cccc4cccc(c34)N2)ccc1OC(C)=O	>57	i
CCOc1cc(C2C(C#N)=C(N)Oc3n[nH]c(C)c32)ccc1OCCN1CCOCC1 (stereo not given)	>57	i
CCn1c(O)c(C2=NCCCC2)c2ccccc21	/	i
COc1cc2c(cc1NC(=O)CSc1nnnn1-c1ccccc1)oc1ccccc12	>57	i
Cc1ccc(-n2ncc3c(=O)n(CC(=O)NCc4ccco4)cnc32)cc1C	/	i
COc1ccc(OC)c(-c2cc(C(=O)Nc3cccc(Cl)c3)no2)c1	>57	i
COc1ccccc1NC(=O)N(Cc1cc2cc(OC)c(OC)cc2[nH]c1=O)CC1CCCO1 (stereo not given)	>57	i
Clc1ccccc1-c1nnc2sc(-c3ccncc3)nn12	/	i
N#Cc1ccc(-c2ccc(OCC(O)Cn3nnc4ccccc43)cc2)cc1 (stereo not given)	i	/
CCCC(C(=O)NC1CCCC1)N(C(=O)Cn1nnc(-c2ccc(C)o2)n1)c1ccccc1OC (stereo not given)	>57	i
CCCc1nc2c(nnn2Cc2ccccc2)c(=O)[nH]1	>57	i
COc1ccc(-n2c(=O)c(-c3cccs3)nc3cncnc32)cc1	/	i
COc1cccc(C(=O)Nc2ccc(NC(=O)C(C)(C)C)cn2)c1	3.7*	i
CCOC(=O)c1[nH]c(C)c(C)c1C	>57	i
COc1cccc(C(=O)Nc2ccccc2N2CCOCC2)c1	>57	i
CCN(CCCNC(=O)Cn1ncc2c(=O)oc3ccccc3c21)c1cccc(C)c1	/	i
CC(Sc1nc2ccccc2o1)C(=O)O (stereo not given)	>57	i
N#CCn1nnc(-c2ccc3c(c2)OCO3)n1	/	i
CCOCC(=O)Nc1ccccc1C(=O)OCC	>57	i
COC(=O)C1=C(C)Nc2nnnn2C1c1ccco1 (stereo not given)	>57	i
COc1ccc(C(=O)NC(=O)CSc2nnc(-c3ccco3)n2-c2ccccc2)cc1	>57	i
COC(=O)c1cc(NC(=O)C2COc3ccccc3O2)ccc1Cl (stereo not given)	>57	i
CCOC(=O)N1CCC(NC(=O)CC(NS(=O)(=O)c2ccc(Cl)cc2)c2ccco2)CC1 (stereo not given)	>57	i
O=C(O)c1ccccc1Nc1cccc(OCc2ccc3ccccc3n2)c1	/	i
O=C(CN(CCc1ccccc1)C(=O)CNS(=O)(=O)c1ccccc1)NCc1ccco1	>57	i
O=C(CSc1nnc(CNc2ccc(F)cc2)n1Cc1ccccc1)N1CCOCC1	>57	i
Cc1ccc(N2CC(C(=O)Nc3nnc(C(C)C)s3)CC2=O)cc1 (stereo not given)	>57	i
CCOc1ccc(N2C(=O)c3ccc(C(=O)OCc4c(C)noc4C)cc3C2=O)cc1	>57	i
COc1ccc(N(C(=O)C2CCCCC2)C2C=CS(=O)(=O)C2)c(OC)c1 (stereo not given)	>57	i
COc1cc2c3c(c1)/C(=C1/SC(NC(C)=O)=NC1=O)C(=O)N3C(C)(C)C=C2C	>57	i
Cc1c(C(=O)NC(C)CN2CCCCC2)oc2ccccc12 (stereo not given)	>57	i
COC(=O)c1c(C)[nH]c(C)c1-c1ccccc1	>57	i
CCOc1cc(NC(=O)C2CC2)c(OCC)cc1NC(=O)c1ccccn1	>57	i
CCOc1ccc2[nH]c(C)cc(=O)c2c1	/	i
COc1ccc(-c2nnc(SCC(=O)c3[nH]c(C)c(C(C)=O)c3C)o2)cc1	>57	i

(list continues)
SMILES	Bst PK mod	TsaE inh
COCCn1nnnc1C(c1ccc(OC)cc1OC)N1CCN(c2ccccc2F)CC1 (stereo not given)	>57	i
Cn1c(=O)c2c(nc(SC3C(=O)CC(C)(C)CC3=O)n2C)n(C)c1=O	>57	i
CCCCOCCCNC(=O)N[C@H](C(=O)OC)C(C)C	>57	i
COc1ccc(OC)c(NC(=O)C2CCC(CNc3c(N4CCC(C)CC4)c(=O)c3=O)CC2)c1 (stereo not given)	/	i
O=C(Nc1cccc(F)c1)N1CCC2(CC1)CCN(C(=O)c1cnccn1)CC2	/	i
Cc1noc(C)c1S(=O)(=O)N1CCC(C(=O)NCCC2=CCCCC2)CC1	>57	i
CCCSc1nc2c(c(=O)[nH]c(=O)n2C)n1C	>57	i
COc1ccccc1-c1cncnc1N1CCN(C)CC1	/	i
CCc1nnc(SCC(=O)N2CCCc3ccccc32)nc1CC	>57	i
CCCCN(CC)S(=O)(=O)c1ccc(C(=O)Nc2nnc(-c3ccccc3Cl)o2)cc1	>57	i
c1coc(Cn2nnnc2CN2CCN(C3CCCCC3)CC2)c1	>57	i
CCOc1ccc(CN2CCC(=O)NC2=O)cc1	/	i
Cc1[nH]nc2c1C(Cc1ccccc1)C(C#N)=C(N)O2 (stereo not given)	>57	i
Cn1c2c(c(=O)n(C)c1=O)CN(CC1CCCO1)CN2 (stereo not given)	>57	i
COCCNC(=O)CN(c1cc(C(F)(F)F)ccc1Cl)S(C)(=O)=O	/	i
NC(=O)c1cc[n+](CC2=C(C(=O)O)N3C(=O)[C@@H](NC(=O)[C@H](c4ccccc4)S(=O)(=O)[O-])[C@@H]3SC2)cc1	/	i
Cc1cc(Cl)c(S(N)(=O)=O)cc1OCC(N)=O	>57	i
O=C(NC1CCCC1)C(NS(=O)(=O)c1cccc2nsnc12)c1ccccc1 (stereo not given)	>57	i
COc1cc(C(=O)OCC(=O)Nc2c(F)c(F)c(F)c(F)c2F)cc(OC)c1OC	i	i
CC(=O)c1c(C)[nH]c(C(=O)NCc2cccs2)c1C	>57	i
COc1ccc(N2Cc3cccc(C(=O)N4CCOCC4)c3C2=O)cc1	>57	i
Cc1c(Br)c(C(F)(F)F)nn1CC(=O)NCCN1CCOCC1	/	i
O=C(c1ccccc1)N1CCN(C(=O)C23CC4CC(CC(C4)C2)C3)CC1	>57	i
Cc1onc(-c2c(F)cccc2Cl)c1C(=O)NCCc1ccc(S(N)(=O)=O)cc1	>57	i
CC(C)n1c(=S)[nH]c2c1c(=O)[nH]c(=O)n2C	>57	i
Cc1cc(C)cc(N(CC(=O)N2CCn3c2nc2ccccc23)S(=O)(=O)c2c(C)noc2C)c1	/	i
CCCCNC(=O)CSc1nnc(NC(C)=O)s1	/	i
C=CCSc1[nH]c(=O)cc(C)c1C(N)=O	>57	i

This is a subset; the hit share may differ from the screen's.
